High-throughput results (PubChem)
S aureus helic: blocks Staphylococcus aureus DNA helicase | purified S. aureus helicase, fluorescence unwinding assay; about half of the hits fall short of the stated cut | inhibition, %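 (tested at about 80 µM)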 | 0.05% of 120,000 active | AID 485395;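 active means both duplicates at 50% or more, or one of them with a favoured structure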;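 further: 0% = mean of negative control wells and 100% = mean of positive control wells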
MgrA-DNA mod: modulators of Staphylococcus aureus MgrA DNA binding. fluorescence polarization. inhibition, %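 (about 10 µg/mL by stock and volumes)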. 0.13% of 84,000 active;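 active means above 50% in either of two replicates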;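 further: 0% = protein plus DNA without compound and 100% = DNA alone without protein; higher means less MgrA bound to DNA so lower polarization; one replicate is shown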
* marks the source's active call; other numbers are inactive results; nt = not tested or not shown. A portion of the library (hit frequency here may not be typical).

SMILES | S aureus helic | MgrA-DNA mod
Cc1ccc(NC(=O)COC(=O)CC2CCCC2)cc1F | -8 | nt
CC(=O)Nc1ccccc1C(=O)N(Cc1ccccc1)Cc1ccccc1 | 9 | 0.6
C=CCN1C(=O)/C(=C\c2ccc(OC(=O)c3ccco3)c(OC)c2)SC1=S | -4 | 0.6
COc1ccc(CCC(=O)Nc2ccc(/C(N)=N/O)cc2)cc1 | 1 | nt
CC(C)n1c2ccccc2c2n[nH]c(=S)nc21 | -2 | nt
O=C(OCC(=O)N(C1CCCCC1)C1CCCCC1)c1ccc(N2CCCC2=O)cc1 | -3 | nt
Cc1cc(C)nc(NS(=O)(=O)c2ccc(NC(=O)/C=C/c3ccc(F)cc3)cc2)n1 | nt | 1.7
O=C(NCCSc1c[nH]c2ccccc12)c1ccco1 | -13 | nt
O=C(CSc1nnnn1-c1ccc(O)cc1)c1c[nH]c(C(=O)N2CCCC2)c1 | -10 | nt
Cc1nc(C)c(-c2ccn(C(=O)C(C)(C)C)n2)s1 | nt | -0.3
O=C1NCCN1CCN1C(=O)c2ccccc2NC1c1cccs1 (stereo not drawn) | -19 | nt
CCc1ccc(NC(=S)N(Cc2cccs2)C2CCCC2)cc1 | 16 | -0.5
O=C(N1CCN(c2ccccc2)CC1)C(F)(F)F | 9 | -7.2
CC(C)NC(=O)CSc1nnc(-c2cccs2)n1C | 0 | nt
O=C(CSc1ccccn1)Nc1ccccc1Sc1nccc(C(F)(F)F)n1 | nt | 0.2
CCN(CC)S(=O)(=O)c1ccc(Nc2ncnc3c2nc2n3CCCCC2)cc1 | -25 | nt
CC1(C)COC(/C=C(\N)c2ccc(Br)cc2)=N1 | 6 | -2.5
Cc1nc2ccc(I)cn2c1/C=N/NCCC#N | 7 | nt
O=C(Nc1ccc(S(=O)(=O)Nc2nccs2)cc1)N1c2ccccc2Sc2ccccc21 | -1 | -0.5
CC(C)C(=O)Nc1cccc(-c2nc3ccccc3c(=O)o2)c1 | 13 | 1.2
COc1ccccc1CC(NC(C)=O)C(=O)N1CCN(C(=O)c2cccs2)CC1 (stereo not drawn) | -4 | -0.8
COc1cc(NC(=O)CC(CC(=O)O)c2ccccc2)c(C(=O)O)cc1OC (stereo not drawn) | -6 | nt
CCOc1cc(Br)c(Br)c(/C=C2\SC(=S)N(CC(=O)O)C2=O)c1O | nt | 6.1
CCNC(=S)N1CCCC(C(N)=O)C1 (stereo not drawn) | -8 | 0.6
S=C(NCCc1ccccn1)NN1C2CSC1CS2 | -22 | nt
N#Cc1cccnc1Oc1ccc(Cl)cc1Cl | -8 | nt
Cc1cccc(OCC(=O)N2CCc3ccccc32)c1 | 13 | 0.6
COc1cc2ccccc2cc1C(=O)OCC(=O)N1CCc2ccccc2C1 | -7 | -0.7
CC(=Nc1ccc(C)cc1)c1ccc(O)cc1O | 13 | 1.9
Cc1ccn2cc(-c3ccccc3)nc2c1 | nt | -1.8
CCOC(=O)C1CCCc2sc(N)c(C#N)c21 (stereo not drawn) | nt | 8.2
CCOC(=O)c1ccc(NC(=O)c2sc(NC(=O)COc3ccc(Cl)cc3)c(C(=O)OCC)c2C)cc1 | nt | -1.7
CCN(CC)S(=O)(=O)c1cc(-c2cc(C(=O)N3CCc4ccccc43)no2)ccc1OC | 8 | nt
CC(C)CC(=O)Nc1ccc(-c2csc(CC#N)n2)cc1 | -4 | nt
COc1ccc(C(=O)/C=C2\N/C(=N\S(=O)(=O)c3ccc(N)cc3)NC2=O)cc1 | -28 | nt
O=C(NCCS(=O)(=O)Cc1ccc(F)cc1)c1ccc(Cl)cc1 | nt | -4.3
Cc1nc(-c2cccc(NC(=O)CN3CCCC3c3cccs3)c2)cs1 (stereo not drawn) | 12 | nt
CC(C)Cn1c(SCc2ccccc2C#N)nnc1-c1ccccc1F | 12 | nt
O=C1c2ccccc2C(=O)N1N=C1CCCCC1 | 19 | 0.8
C/C=C/NC(=O)c1nc2c(nnn2Cc2ccc(C)cc2)c(=O)[nH]1 | 5 | -0.7
O=C(O)C(Cc1ccccc1)N1C(=O)/C(=C\c2ccco2)SC1=S (stereo not drawn) | 8 | nt
COCCn1ccc2nc(SC)ncc2c1=O | 43 | nt
Cc1cc(NNS(=O)(=O)c2ccc(CCC(=O)O)cc2)n2ncnc2n1 | -11 | nt
COC(=O)C(O)(NC(=O)c1ccccc1)C(F)(F)F (stereo not drawn) | 11 | nt
O=C(CN(c1cccc([N+](=O)[O-])c1)S(=O)(=O)c1ccccc1)N(Cc1ccccc1)Cc1ccccc1 | nt | 0.2
CCOC(=O)c1c(C)n(C)c2c1cc(OC(=O)c1ccccc1Br)c1ccccc12 | nt | -1.5
CCN1CCO/C1=C\C=C\C1=[N+](CC)CCO1 | 5 | nt
CS(=O)(=O)N1CCCc2cc(C(=O)Cn3cc(C(F)(F)F)ccc3=O)ccc21 | -8 | nt
CCOc1ccc(-n2c(=O)c(C#N)cc3c(=O)n4ccccc4nc32)cc1 | 5 | nt
Cc1ccc2[nH]c(=O)c3cc(C(=O)NCC4COc5ccccc5O4)sc3c2c1 (stereo not drawn) | 5 | 0.3

The results go on:
SMILES | S aureus helic | MgrA-DNA mod
CCCCC[C@H](O)/C=C/[C@H]1[C@H](O)CC(=O)[C@@H]1C/C=C\CCCC(=O)O | nt | -0.4
Cc1ccc(S(=O)(=O)NC(=O)NNC(=O)c2ccsc2)cc1 | nt | -0.6
CCCCC/C=C\C[C@@H](O)/C=C/C=C/C=C\[C@@H](O)CCCC(=O)O | nt | 0.6
CCOc1ccc2nc(-c3nc4ccccc4s3)sc2c1 | 5 | 2.2
ONC=Nc1ccc2nnc(-c3ccccc3)n2n1 | nt | -0.6
N#CC1=C(N)Oc2ccccc2C12C(=O)Nc1cc(N)ccc12 (stereo not drawn) | -1 | 0.8
CCCCNC1=NCCS1 | 2 | nt
COc1ccc(OCC2CCCNC2)cc1 (stereo not drawn) | 2 | -3.9
O=C(O)Cc1c(-c2ccccc2)c2cc(Cl)ccc2[nH]c1=O | 9 | -0.6
Cc1nn(-c2ccc(F)cc2)c(Cl)c1/C=N/N=C1\C(=O)Nc2ccccc21 | 6 | nt
CCCCC[C@H](O)/C=C/[C@@H]1[C@H]2C/C(=C/CCCC(=O)O)C[C@H]2C[C@H]1O | nt | 0.6
CCNC(=O)N(CC)Cc1nc(-c2ccc(Cl)cc2)no1 | -1 | nt
COc1ccc(/C=C2\N=C(c3ccccc3)NNC2=O)cc1 | -8 | nt
Cc1noc(-c2ccc(OCc3cnn(-c4ccccc4)c3)cc2O)c1Oc1ccc(F)cc1 | -8 | 2.1
CC(C)NC(=O)CCCn1c(=S)[nH]c2ccc(Br)cc2c1=O | 8 | 4.0
CC1(C)S[C@@H]2[C@H](NC(=O)COc3ccccc3)C(=O)N2C1C(=O)O (stereo partly drawn) (tested in a mixture with another compound) | nt | -0.1
CCOC(=O)/C(N=Nc1ccc(F)cc1F)=C(\C)O | nt | 1.2
CC[n+]1ccc(C)c2cc(S(=O)C(F)(F)F)ccc21 (stereo not drawn) | -31 | nt
CN(C)c1ccc(/C=C2\SC(=O)N(CCC(=O)Nc3ccccc3)C2=O)cc1 | -7 | nt
Cc1cc(C(=O)CSc2nc3ccccc3s2)c(C)n1C | -3 | nt
CCC(C)NC(=O)c1ccc(CS(=O)(=O)Cc2ccc(Cl)cc2)o1 (stereo not drawn) | -13 | -0.7
COc1ccc(-c2cc(=O)c3cc(OC(=O)c4ccncc4)ccc3o2)cc1 | 1 | nt
O=C(O)COc1ccc(CS(=O)(=O)Cc2ccc(OCC(=O)O)cc2)cc1 | -3 | -3.7
COc1ccc(CCNC(=O)C2CCCN(S(=O)(=O)c3cccc4nonc34)C2)cc1OC (stereo not drawn) | 6 | 0.7
COc1ccc(-c2csc(CN3CCN(c4ccccc4OC)CC3)n2)cc1 | nt | -3.0
Cc1ccn2c(N)c(-c3ccccc3)nc2c1 | -8 | nt
CC(=O)Nc1c(O)[nH]c2ccc(C)cc12 | -19 | -0.5
O=C(O)c1ccc(CS(=O)c2ccccc2)o1 (stereo not drawn) | 14 | nt
COc1ccc(S(=O)(=O)N(CCC(=O)O)Cc2ccccc2)cc1 | -7 | nt
O=C(O)c1ccccc1C(=O)N1CCC(C(=O)c2ccccc2)CC1 | 8 | -0.4
O=C(Cn1nc(C(=O)O)c2ccccc2c1=O)c1c[nH]c2ccccc12 | 9 | nt
N#CCSc1ccc(Cl)cc1 | nt | -1.8
O=C(/C=C/c1cccc(C(F)(F)F)c1)NCc1ccccc1 | -7 | -1.5
Cc1ccc(OC(=O)Nc2ccccc2)cc1 | 10 | -0.6
N#Cc1ccc(CSC2=Nc3ccccc3CS2)cc1 | -14 | nt
CCOCC(=O)Nc1cccc(NC(C)=O)c1 | -3 | 3.5
CN(Cc1ccccc1Cl)C(=O)CNC(=O)c1ccco1 | -8 | nt
O=[N+]([O-])c1ccc(Oc2c(Cl)cc(S(=O)(=O)Nc3ccc(F)cc3F)cc2Cl)c(Cl)c1 | nt | 0.4
O=C(NCCS(=O)(=O)N1CCN(c2ccccc2)CC1)c1ccccc1 | 11 | nt
CC/C(=N\c1ccnn1C1CCCCC1)c1c(O)n(CCOC)c(=S)[nH]c1=O | -18 | nt

6 structures out of the list, arranged by formula weight, low to high.
SMILES | S aureus helic | MgrA-DNA mod
N#CCSc1ccc(Cl)cc1 | nt | -1.8
O=C(/C=C/c1cccc(C(F)(F)F)c1)NCc1ccccc1 | -7 | -1.5
O=C(Cn1nc(C(=O)O)c2ccccc2c1=O)c1c[nH]c2ccccc12 | 9 | nt
O=C(NCCS(=O)(=O)N1CCN(c2ccccc2)CC1)c1ccccc1 | 11 | nt
CC/C(=N\c1ccnn1C1CCCCC1)c1c(O)n(CCOC)c(=S)[nH]c1=O | -18 | nt
O=[N+]([O-])c1ccc(Oc2c(Cl)cc(S(=O)(=O)Nc3ccc(F)cc3F)cc2Cl)c(Cl)c1 | nt | 0.4

Later entries:
Each structure is followed by: S aureus helic	MgrA-DNA mod
- Cc1ccc(S(=O)(=O)N2CCCC2C(=O)O)cc1 (stereo not drawn)
    2	-1.4
- CCOC(=O)c1sc2cccc(F)c2c1CSc1nnc(SCc2ccc(C(=O)OC)o2)s1
    5	nt
- CC(=O)NCCCc1nc2ccccc2[nH]1
    2	nt
- C=CCN(c1ccccc1OC)S(=O)(=O)c1cccc(C(=O)OC)c1
    -2	nt
- O=C(O)CCS(=O)(=O)Cc1ccccc1
    6	-4.4
- Cc1cccc(NC(=O)CSc2nc3cc(S(=O)(=O)N(C)C)ccc3o2)c1
    -3	nt
- CC(=O)Nc1ccc2oc3ccccc3c2c1
    5	0.6
- COc1cc2c(cc1NC(=O)CSCC(=O)O)oc1ccccc12
    -8	nt
- Cc1cc(C)c2[nH]c(C)cc(=O)c2c1
    nt	-3.1
- O=C1c2ccccc2C(Nc2ccc(Cl)cc2)N1Cc1ccco1 (stereo not drawn)
    -28	nt
- O=C(Nc1c(Br)c(C2CC2)nn1-c1ccccc1)C(Cl)(Cl)Cl
    nt	0.4
- CCOC(=O)c1c2nc3ccccc3nc2n2c1[nH]c(=O)c1c3c(sc12)CCCC3
    -27	nt
- O=C(Nc1ccc(F)cc1)c1ccncc1
    nt	2.5
- O=C(NCCc1ccc(Cl)cc1)C1CCN(S(=O)(=O)c2ccc3c(c2)OCCO3)CC1
    -7	nt
- O=c1[nH]c2cc(Cl)ccc2c(-c2ccccc2)c1Sc1ncn[nH]1
    20	nt
- O=c1[nH]c2ccc(Cl)cc2c(-c2ccccc2)c1SCCO
    4	nt
- Cc1ccc2occ(CC(=O)Nc3ccc(F)cc3)c2c1
    6	0.1
- CCOC(=O)C(C)Sc1nnc(Cc2cc(=O)[nH]c(=O)[nH]2)n1-c1ccc(F)cc1 (stereo not drawn)
    12	nt
- CCN(CC)C(=O)Cc1c(C(=O)O)[nH]c2ccc(Cl)cc12
    41	nt
- C=CCNC(=O)C(C)Sc1ccc(Cl)cc1 (stereo not drawn)
    17	5.0
- CCOc1ncccc1C(=O)Nc1c(C)cc(C)cc1Cl
    -8	nt
- CCOC(=O)Nc1ccc(OC)cc1OC
    nt	-1.3
- CCCn1c(-c2cccs2)n[nH]c1=O
    nt	-1.0
- CS(=O)(=NS(=O)(=O)c1cccc2nonc12)c1ccccc1 (stereo not drawn)
    13	nt
- Fc1ccc(/C=N/N2CCOCC2)cc1
    0	nt
- O=C(CSc1nnc(-c2ccco2)n1CC1CCCO1)c1ccccc1 (stereo not drawn)
    -1	1.6
- OCc1cccn1-c1ncc(C(F)(F)F)cc1Cl
    nt	-0.9
- O=C1c2ccccc2C(=O)N1c1ccccc1S(=O)C(F)(F)F (stereo not drawn)
    0	0.8
- COc1cc(NC(=O)CCC2CCCC2)c(C(=O)N2CCN(C(C)=O)CC2)cc1OC
    13	nt
- Cc1ccc(S(=O)(=O)N(C)C2CCCCC2)cc1-c1nnc2c3ccccc3c(C)nn12
    14	2.7
- CCc1ccccc1Oc1ncccn1
    9	nt
- CC(C)C1OCC2Cc3ccccc3C2O1 (stereo not drawn)
    5	2.1
- N#Cc1cn(-c2ccccc2)nc1-c1ccccc1
    -19	nt
- CCOC(=O)c1ccc2c(c1)nc(COc1ccc(OC)cc1)n2CC
    2	nt
- CC(C)(S)C(N)C(=O)O (stereo not drawn)
    nt	1.6
- COc1cccc2sc(N)nc12
    6	nt
- COCc1cc(C)nc(Oc2ccccc2)c1C#N
    1	-2.2
- CCCCNC(=O)c1cn(CC)c2ccc(S(=O)(=O)N3CCCCCC3)cc2c1=O
    -1	nt
- FC(F)(F)c1cc(-c2ccco2)nc(-n2nc(C(F)(F)F)cc2C2CC2)n1
    -3	nt
- CSc1nn(-c2ccccc2)cc1-c1noc(-c2cccs2)n1
    nt	-2.2
- CCN1/C(=C\C(=S)Nc2ccccc2)Sc2ccccc21
    nt	-0.6
- CC(=Nc1ccccc1)C1=C(O)CCCC1=O
    -15	nt
- Cc1n[nH]c(=O)c2cc3ccccc3n12
    10	nt
- COc1ccc(CNC(=O)C(C)C)cc1
    5	4.8
- Cn1c(=O)cc(N2CCOCC2)c2c(=O)n(-c3ccccc3)c(=O)n(-c3ccccc3)c21
    nt	-0.4
